CtBP-E1A inh = qHTS Assay for Inhibitors of the CtBP/E1A Interaction. AlphaScreen GST-E1A/His-CtBP binding, 1536-well; stronger effect = lower value; control for the full effect not named in the record. activity change, % (test concentration not listed). actives 0.49% (n = 340,000). AID 651724, 2012; in the data active means activity change below about -65%; inconclusive means about -30% to -65%; inactive means above about -30%; also: % is scaled to controls: 0 for no effect and ±100 for the full control effect; compound concentration not given in the record
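Protein mix (5X: 125 nM each GST-E1A, His-CtBP) was incubated with pinned compound 2 h at 37 deg C in dark, in 50 mM Tris pH 8.0 buffer with 300 mM NaCl. Glutathione donor and nickel acceptor beads followed; AlphaScreen signal read after 1 h.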
Six1-Eya2 inh = qHTS Assay for Inhibitors of the Six1/Eya2 Interaction. Homeobox protein SIX1 (Homo sapiens) + Protein phosphatase EYA2 (Homo sapiens), …. actives 0.56% (n = 360,000). AID 651725, 2012. AlphaScreen GST-Six1/His-Eya2 binding, biochemical; stronger effect = lower value; control for the full effect not named in the record. activity change, % (test concentration not listed); in the data active = activity change below about -65%; inconclusive = about -30% to -65%; inactive = above about -30%; also: % is scaled to controls: 0 for no effect and ±100 for the full control effect; compound concentration not given in the record
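AlphaScreen luminescence read after one hour at 37 °C in darkness. Pin-transferred compounds met GST-Six1 and His-Eya2 protein (5X stock 250 nM/500 nM) plus glutathione donor and Ni-chelate acceptor beads (5X, 50 ug/mL).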
TRPML1 agonist = qHTS for Agonists of the Human Mucolipin Transient Receptor Potential 1 (TRPML1); AID 624414, 2012; TRPML1-expressing cells, Ca2+ dye fluorescence, FDSS; host cell line not named in the record; reference of the full effect not given here; actives 0.12% (n = 410,000); activation, % (no concentration beside the values); in the data active = activation above about 50%; inconclusive = about 30% to 50%; inactive = below about 30%; also: 0% is about no effect; the text of the record puts the active cut at 80%
Target sequence (Q9GZU1 whole entry, looked up): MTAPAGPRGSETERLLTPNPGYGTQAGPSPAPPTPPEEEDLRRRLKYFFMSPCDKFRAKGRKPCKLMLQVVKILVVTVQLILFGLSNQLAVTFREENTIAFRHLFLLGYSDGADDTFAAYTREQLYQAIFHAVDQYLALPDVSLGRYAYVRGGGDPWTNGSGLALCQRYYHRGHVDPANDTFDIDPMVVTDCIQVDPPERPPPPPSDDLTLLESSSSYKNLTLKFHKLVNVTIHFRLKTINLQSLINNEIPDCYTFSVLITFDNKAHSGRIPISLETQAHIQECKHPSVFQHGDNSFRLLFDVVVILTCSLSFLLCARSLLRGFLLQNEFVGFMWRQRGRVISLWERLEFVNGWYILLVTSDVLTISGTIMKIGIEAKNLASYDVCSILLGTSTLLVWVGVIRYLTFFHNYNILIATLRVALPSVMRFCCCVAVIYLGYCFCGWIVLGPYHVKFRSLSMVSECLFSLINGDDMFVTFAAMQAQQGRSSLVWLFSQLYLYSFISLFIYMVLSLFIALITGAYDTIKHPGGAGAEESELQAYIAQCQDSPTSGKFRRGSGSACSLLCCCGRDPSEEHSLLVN
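In this qHTS format, compounds were pin-transferred onto Ca8-dye-loaded TRPML1-DL cells induced with Tet overnight, and intracellular Ca2+ fluorescence was recorded kinetically for 110 s after a 10 s baseline. A subsequent 4uM final 54-4 (EC80) addition followed by a second 110 s read served as the antagonist phase.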
TRPML1 inh = qHTS for Inhibitors of the Human Mucolipin Transient Receptor Potential 1 (TRPML1). Mucolipin-1 (Homo sapiens), Q9GZU1. TRPML1-inducible cells, Ca2+ dye fluorescence, FDSS; stronger effect = lower value; inhibition of EC80 agonist-evoked calcium signal. activity change, negative = inhibition, % (no concentration beside the values). actives 0.02% (n = 390,000); in the data active means activity change below about -50%; inconclusive means about -30% to -50%; inactive means above about -30%;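 also: stimulus is agonist 54-4 at its EC80 concentration; % is scaled to controls: 0 for no effect and ±100 for the full control effect; compound concentration not given in the record; the text of the record puts the active cut at -80%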
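TRPML1-DL cells, Tet-induced overnight (~16 h, 37 °C) at 1,500 cells/well, were loaded with Ca8 no-wash dye plus quencher for 45-90 min at room temperature. Compounds were pinned during FDSS kinetic reading; agonist 54-4 at EC80 (4 uM final) then added.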
D2 agonist = Beta-Arrestin HTS for Positive Allosteric Modulators of the Human D2 Dopamine Receptor: Agonists; D(2) dopamine receptor (Homo sapiens), P14416; DiscoveRx PathHunter D2 beta-arrestin, luminescence, 90 min; 100% = 57 uM dopamine signal; activation, % (concentration not given with the values); actives 0.084% (n = 360,000); in the data active = activation above about 40%; inconclusive = about 15% to 40%; inactive = below about 15%; also: compound concentration not given in the record; the text of the record calls up to 30% inactive
Target sequence (P14416 whole entry, looked up): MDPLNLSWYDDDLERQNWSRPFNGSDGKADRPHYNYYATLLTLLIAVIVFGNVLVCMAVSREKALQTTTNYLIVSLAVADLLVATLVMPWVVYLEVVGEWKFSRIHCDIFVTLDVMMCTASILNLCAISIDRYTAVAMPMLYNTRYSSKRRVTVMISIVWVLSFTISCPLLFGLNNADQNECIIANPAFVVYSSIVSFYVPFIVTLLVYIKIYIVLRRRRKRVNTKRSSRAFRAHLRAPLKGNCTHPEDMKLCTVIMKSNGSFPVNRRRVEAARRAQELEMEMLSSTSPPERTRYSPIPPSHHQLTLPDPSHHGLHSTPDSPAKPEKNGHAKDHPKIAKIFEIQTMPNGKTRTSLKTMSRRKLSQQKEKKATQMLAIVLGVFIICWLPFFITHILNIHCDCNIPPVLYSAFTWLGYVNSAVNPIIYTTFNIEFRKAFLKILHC
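Agonist mode: compounds alone added to overnight-plated D2 PathHunter cells for 90 min at 37 C, with 57 uM final dopamine (EC100) defining full response. Beta-arrestin recruitment detected by chemiluminescent reagent, read after 1 h at ambient temperature.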
PINK1 modulator = A Quantitative High throughput Screen to Identify Chemical Modulators of PINK1 Expression; PINK1 immunofluorescence, high-content cytometry, 24 h; Potency, µM (highest dose often 76.6 µM), for the others: at the highest dose activation (PINK1 increase), hits mostly activators; actives 0.2% (n = 410,000); AID 624263, 2012; active = well fitted activation curve with a large enough effect; inconclusive = small, poorly fitted or top-dose-only effect; inactive = flat fitted curve, though single readings scatter; cell line not stated here;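 also: potency is read from the fitted curve at half-maximal effect; % of control where 0% means no effect; nearly all actives have a fitted effect of over 65% in size; a mitochondrial uncoupler was the plate control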
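PINK1 protein, normally rapidly degraded, was detected by immunofluorescence after 24 hour compound treatment of a stable cell line. Titration data (5 concentrations) came from laser-scanning cytometry, with CCCP-treated wells as controls.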
An asterisk follows results filed as active; ? = inconclusive; / = no result given; [ ] = another dose, or the depositor's remark.

SMILES | CtBP-E1A inh | Six1-Eya2 inh | TRPML1 agonist | TRPML1 inh | D2 agonist | PINK1 modulator
O=C(Nc1nnc(SCc2ccccc2)s1)c1cc2c(s1)CCCC2 | -2 | -1 | -0.8 | 1 | 1.0 | 4.8%
Clc1cccc(OCCOCCN2CCNCC2)c1Cl | -5 | 23 | 1.4 | -12 | -8.2 | -1.1%
COc1ccc(NC(=O)CN(C)C(=O)Cc2c(C)nc3ccccc3c2C)cc1 | -3 | 5 | 0.5 | -6 | 0.1 | 0.4%
COc1cccc(-c2csc(N3CCN(Cc4ccccc4)CC3)n2)c1 | -10 | -11 | -0.4 | 1 | -1.3 | 0.3%[38.3 µM]
COc1ccc(NC(=O)c2cc(-c3ccc4c(c3)OCO4)on2)cc1OC | -5 | 1 | -0.2 | 0 | -0.5 | 8.0%
CCc1nc(Nc2ccccc2)c2oc3ccccc3c2n1 | 8 | 2 | 2.9 | 37 | 0.3 | /
CNC(=O)/C=C1\NC(C)(C)Cc2ccccc21 | 12 | 1 | -0.7 | 4 | -1.5 | ?
Cc1cc2nc(-c3ccc(SCC(=O)N4CCc5ccccc54)nc3)[nH]c2cc1C | 14 | -2 | -0.3 | -10 | -1.7 | 1.7%[38.3 µM]
C=CCC[C@@H](Cc1ccc(F)cc1)C(=O)OC[C@@H](NC(=O)[C@@H](CC=C)CC(=O)N(CCO)Cc1ccccc1)c1ccccc1 | -3 | -10 | 0.6 | -3 | -6.2 | 2.1%
Cn1c(C(=O)NCCc2ccccc2)cc2sc(Cl)cc21 | / | / | -1.1 | -12 | / | -0.6%
COc1cccc(C(=O)N(Cc2cccnc2)c2nc3c(OC)ccc(C)c3s2)c1OC | / | / | 1.6 | 24 | / | -0.8%
COC(=O)c1cc(Br)c(=O)n(CCN(C(C)C)C(C)C)c1 | -1 | 0 | -0.1 | -6 | -1.1 | 0.0%
CCOC(=O)C1=C(COC(=O)c2cccc(Br)c2)NC(=O)NC1C (stereo unspecified) | 1 | -2 | -0.1 | 15 | -1.9 | 1.5%
O=C(NCc1ccccc1)C1CCCN1S(=O)(=O)c1cccc2cccnc12 (stereo unspecified) | 1 | 7 | -0.1 | -7 | -6.5 | 0.9%
Cc1cc(N2CCN(C)CC2)nc2ccc(NC(=O)CCC(=O)NCCC(C)C)cc12 | / | 2 | 0.9 | 2 | -5.3 | 0.6%
Cc1cc(NC(=O)CS(=O)(=O)c2cn(Cc3cccc(Cl)c3)c3ccccc23)no1 | -5 | -12 | 1.6 | 10 | 1.8 | 2.9%
CCn1c(SCC(=O)N2CCCC2)nnc1-c1ccc(N)cc1 | -1 | -8 | -0.6 | 8 | -2.4 | 1.8%
O=C(COc1ccc(Br)cc1)Nc1nnc(C2CC2)s1 | 1 | 0 | 1.4 | -22 | -0.9 | 0.8%
CN(C)C(CNS(=O)(=O)c1ccc(Cl)cc1)c1cccnc1 (stereo unspecified) | -1 | -2 | 0.0 | -6 | 1.0 | -0.4%
CCN(CC)C(=O)c1ccccc1NC(=O)CN1C(=O)c2ccccc2C1=O | 15 | 13 | -0.8 | -1 | 0.3 | 1.0%
CCCc1c(O)nc(SCC(=O)NCCc2ccc(OC)c(OC)c2)[nH]c1=O | 7 | 4 | 0.2 | 4 | -2.4 | -0.9%
O=C(CN1CCN(Cc2ccccc2)CC1)N1CCCc2c1c(=O)oc1ccc(O)cc21 | -7 | -8 | -0.3 | 2 | -1.2 | 8.9%[38.3 µM]
Cc1c[n+]([O-])n(-c2ccc(C(=O)O)cc2)n1 | -2 | 11 | 0.6 | 16 | -1.2 | -4.2%
O=c1[nH]c(Cc2ccccc2Cl)nc2ccccc12 | -4 | -13 | 0.3 | 54 | -1.0 | 14%
COc1ccc(C(C[N+](=O)[O-])C2(c3ccc(OC)c(OC)c3)C(=O)c3ccccc3C2=O)cc1 (stereo unspecified) | 1 | 2 | 9.9 | 6 | -11 | -2.3%
SMILES | CtBP-E1A inh | Six1-Eya2 inh | TRPML1 agonist | TRPML1 inh | D2 agonist | PINK1 modulator
CC(=O)NC(NC(=S)Nc1ccccc1Br)C(Cl)(Cl)Cl (stereo unspecified) | 3 | 1 | 0.1 | 15 | 6.1 | 6.6%
O=c1c(Cl)c(NCCO)ncn1-c1ccccc1 | -3 | 2 | 0.0 | 2 | -4.1 | 1.2%
O=C1CC(c2ccccc2)CC(O)=C1C=NCc1ccccc1Cl (stereo unspecified) | 16 | 1 | -0.3 | 10 | -2.0 | 11%[38.3 µM]
N/C(=N\NS(=O)(=O)c1ccccc1)c1ccccn1 | -18 | -12 | 1.2 | 1 | 2.6 | 1.4%
CC1(C)CC(=O)c2cc(OCC(=O)NCCCN3CCN(c4ccc(F)cc4)CC3)ccc2O1 | -7 | -3 | 2.0 | 28 | 1.7 | -1.5%[38.3 µM]
O=C(O)C(c1ccccc1)C1(O)CCCCC1 (stereo unspecified) | / | 1 | -0.1 | 2 | -4.1 | 2.5%
COc1ccc(N2CCN(CC(=O)Nc3cc(C)on3)CC2)cc1 | 2 | 5 | 0.8 | -11 | -0.8 | -2.0%[38.3 µM]
COc1ccc(Cl)cc1NC(=O)c1cc(S(=O)(=O)N2CCCC2)cn1C | -18 | 2 | -0.4 | -2 | 1.7 | 0.6%
CCC(C(=O)OC)n1c(-c2ccccc2)nc2ccccc2c1=O (stereo unspecified) | -10 | 10 | 3.0 | -8 | -0.6 | 1.3%
COC1c2ccccc2C(=O)N1CCc1ccc(Cl)cc1 (stereo unspecified) | 7 | 5 | 1.0 | -2 | -0.1 | -0.2%
COC(=O)C(Cc1ccc(OC(=O)c2ccc(Cl)cc2)cc1)N1Cc2ccccc2C1=O (stereo unspecified) | -4 | 1 | 1.6 | 27 | 2.4 | 5.3%
N#CCCN(C(=O)COC(=O)c1cccc(S(=O)(=O)N2CCCC2)c1)c1ccc(F)cc1 | 2 | -3 | 0.6 | 9 | -1.2 | 1.6%
CCOc1ccc2nc(NC(=O)c3ccc(C)o3)sc2c1 | -3 | -9 | -0.8 | 47 | -1.3 | 8.6%
Cc1cc(OCC(=O)N2CCN(c3ncccn3)CC2)ccc1Cl | -1 | -5 | -0.5 | -15 | 0.7 | 0.8%
CC1(C)ON=C(c2cccc(F)c2)NC1=O | 4 | 8 | -0.4 | / | -2.7 | 0.1%
CCOC(=O)C1CCN(C(=O)COc2ccc3c(C)cc(=O)oc3c2)CC1 | -4 | 7 | -0.1 | 6 | -2.4 | 1.6%
Nn1c(SCc2ccccc2F)nnc1-c1ccccn1 | 0 | ? | -0.6 | 28 | -3.6 | 0.2%
Cc1cc(=O)oc2cc(OCc3nnc(-c4ccccc4Br)o3)ccc12 | -18 | -16 | 0.8 | -15 | -0.3 | 1.7%
COC(=O)c1cc(N2C(=O)C3C4C=CC(CC4)C3C2=O)ccc1Cl (stereo unspecified) | -5 | 3 | 2.1 | -7 | 0.6 | 0.9%
Cc1ccc(NC(=S)/N=C(\N)Nc2nc(C)c3cc(C)c(C)cc3n2)cc1C | -8 | -15 | -0.5 | 1 | -2.0 | 6.5%
COc1cccc(N2CCN(C(=O)c3nc(-c4ccc(Cl)cc4)n4c3CCCCC4)CC2)c1 | / | / | 1.5 | 16 | / | 3.8%
CCOC(=O)c1cnc2c(ccc3ccccc32)c1Cl | 6 | 11 | -0.1 | 4 | -2.4 | -0.2%
CCC(=O)N1c2ccc(S(=O)(=O)N3CCN(c4ccc([N+](=O)[O-])cc4)CC3)cc2CC1C (stereo unspecified) | -7 | -6 | -0.9 | -13 | -2.7 | 0.1%
CC(=O)c1c(C)[nH]c(C(=O)Nc2ccc(Cl)c(S(=O)(=O)N(C)C)c2)c1C | / | -1 | 0.8 | 4 | -3.0 | 5.8%
Cc1nn(C(C)C(=O)Nc2sc3c(c2C#N)CCCC3)c(C)c1[N+](=O)[O-] (stereo unspecified) | 12 | -7 | -0.6 | 14 | -2.1 | -0.6%[38.3 µM]

One compound at a time (already shown):
Cc1nn(C(C)C(=O)Nc2sc3c(c2C#N)CCCC3)c(C)c1[N+](=O)[O-] (stereo unspecified) is listed as CtBP-E1A inh: 12; Six1-Eya2 inh: -7; TRPML1 agonist: -0.6; TRPML1 inh: 14; D2 agonist: -2.1; PINK1 modulator: -0.6%[38.3 µM]
N#CCCN(C(=O)COC(=O)c1cccc(S(=O)(=O)N2CCCC2)c1)c1ccc(F)cc1 is listed as CtBP-E1A inh: 2; Six1-Eya2 inh: -3; TRPML1 agonist: 0.6; TRPML1 inh: 9; D2 agonist: -1.2; PINK1 modulator: 1.6%

Additional structures.
SMILES | CtBP-E1A inh | Six1-Eya2 inh | TRPML1 agonist | TRPML1 inh | D2 agonist | PINK1 modulator
COc1ccc(OC2CCN(S(=O)(=O)c3ccccc3)CC2)cc1 | 3 | 0 | -0.6 | 0 | 0.5 | 5.3%
CCCn1c2ccccc2c2nnc(SC(CC)C(=O)Nc3sc4c(c3C#N)CCCC4)nc21 (stereo unspecified) | -1 | 8 | -0.9 | -4 | -3.8 | 2.5%
Fc1ccc(/C=N/N2CCOCC2)c(F)c1 | / | 17 | 0.9 | 8 | -3.7 | 1.6%
CCCCNC(=S)N/N=C/C1=CCC2CC1C2(C)C (stereo unspecified) | -1 | -9 | 0.3 | 59 | -3.4 | ?
O=C(CN1CCC(O)(c2cccc(C(F)(F)F)c2)CC1)NCCc1ccccc1 | -13 | -1 | 1.1 | 40 | -2.2 | 0.7%
Cc1ccc(-c2nn(C)c(=O)c3ccccc23)cc1CO | 0 | 11 | 1.4 | -11 | -3.4 | 1.2%
Cc1ccc(NC(=O)Cn2nnc(C(=O)NCc3cccs3)c2N)cc1 | 3 | -2 | -0.5 | 3 | -4.3 | 4.5%
O=C(NCC1CC1)Nc1ccc(Cl)cc1 | / | 9 | 0.2 | -8 | -3.8 | 1.0%
COc1ccc(-c2nc(N3CCN(S(=O)(=O)c4ccc(C)cc4)CC3)c3ccccc3n2)cc1 | / | / | 0.0 | 17 | / | -1.0%
Cc1csc(NC(=O)c2ccc(C)c(S(=O)(=O)N3CCCCC3)c2)n1 | -5 | -3 | -0.3 | -2 | -1.1 | -1.5%
COC(=O)C(NC(=O)c1ccco1)(Nc1nc(C2CC2)cs1)C(F)(F)F (stereo unspecified) | -6 | -5 | 6.0 | -14 | -2.7 | 1.7%

Three compounds already listed, arranged by the number in D2 agonist, highest first:
Structure | D2 agonist
CCc1nc(Nc2ccccc2)c2oc3ccccc3c2n1 | 0.3
COc1ccc(N2CCN(CC(=O)Nc3cc(C)on3)CC2)cc1 | -0.8
CCCc1c(O)nc(SCC(=O)NCCc2ccc(OC)c(OC)c2)[nH]c1=O | -2.4

Source: PubChem (National Center for Advancing Translational Sciences (NCATS))
